# FGF22 binding – binders of human FGF22 protein, primary screen, FGF22 synaptogenesis inhibitor project, biophysical, thermal shift, single point; AID 651658, 2012; calls only at 9.99 µM; Fibroblast growth factor 22 (Homo sapiens), Q9HCT0; recombinant FGF22 thermal shift, SYPRO orange fluorescence; percent of sucrose octasulfate shift, DMSO zero; hit rate 1.5% among 340,000;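 active means melting point raised past a set limit in the mean and every replicate; three in four hits are not shown here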
# Target sequence (Q9HCT0 whole entry, looked up): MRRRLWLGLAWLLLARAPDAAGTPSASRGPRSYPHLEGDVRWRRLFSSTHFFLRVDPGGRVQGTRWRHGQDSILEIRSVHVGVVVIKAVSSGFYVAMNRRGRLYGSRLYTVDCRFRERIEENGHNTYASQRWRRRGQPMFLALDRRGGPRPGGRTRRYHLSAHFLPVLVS
# Beta2AR agonist – beta2AR agonists driving receptor internalization, primary screen, cell-based, FAP fluorogen, flow cytometry; Beta-2 adrenergic receptor (Homo sapiens), P07550; Am2.2-beta2AR cells; reference of the scale not given here; response, % (no concentration beside the values); hit rate 0.43% among 340,000;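 active means response above a set limit, near 3 SD of response in nonfluorescent compounds, cut at about 42% in these data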;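 further: stock transfer was 100 nL into about 11 µL; a reference agonist was the positive control; negative values mostly stem from fluorescent compounds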
# ALR H2O2 inh – inhibitors of human ALR sulfhydryl oxidase, primary screen, biochemical, H2O2 detection, HRP-luminol luminescence, single point | FAD-linked sulfhydryl oxidase ALR (Homo sapiens), P55789 | purified ALR, DTT oxidation | inhibition, % (no concentration beside the values) | hit rate 3.8% among 290,000;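 active means mean and each replicate at 75% or more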;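 further: stock transfer was 7.5 nL into about 7.5 µL; 0% = neutral wells and 100% = wells with inactivated enzyme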
# Target sequence (P55789 whole entry, looked up): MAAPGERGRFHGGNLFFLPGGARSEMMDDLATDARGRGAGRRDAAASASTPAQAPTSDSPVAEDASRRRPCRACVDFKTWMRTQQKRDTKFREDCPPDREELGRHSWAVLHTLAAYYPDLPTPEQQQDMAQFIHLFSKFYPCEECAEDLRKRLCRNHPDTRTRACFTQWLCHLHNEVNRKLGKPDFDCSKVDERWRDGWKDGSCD
# HNF4A DNA FP – change in binding of human HNF4A to DNA, primary screen, biochemical, fluorescence polarization, FITC-DNA. Hepatocyte nuclear factor 4-alpha (Homo sapiens), P41235. 1 h. activity change, % at 10 µM. hit rate 0.3% among 360,000; in the data active means activity change above about 30%, passing the limit was not always enough;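 further: controls were the assay level and a saturating level of protein; the project sought stronger binding though the title names inhibitors; some compounds called inactive have numbers as strong as hits; positive values seem to mean higher polarization but the record does not say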
# Ecoli growth – E. coli growth inhibition, primary screen, OD600; Escherichia coli growth, 23 h; stronger effect = lower value; OD600 absorbance (concentration not given with the values); hit rate 0.21% among 330,000; AID 1053175, 2014;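 active means OD600 absorbance below the run mean of sample wells minus 3.6 SD, in any replicate, cut at about 0.56 in these data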;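 further: stock transfer was 300 nL into about 60 µL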
# rRNA inh HTS – reduced GFP signal of wild-type E. coli, primary screen, bacterial rRNA inhibitor project, GFP/RFP fluorescence, OD600, single point. E. coli WT GFP vs humanized-ribosome RFP mutants, 24 h; stronger effect = lower value; DMSO median 0, no signal -100. GFP signal change (wild-type ribosome), % (concentration not given with the values). hit rate 1.6% among 350,000. AID 720706, 2013;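 active means significant combined selectivity score with lowered wild-type GFP, culture density cut under 30%, mutant RFP and density less affected; inactive means any of these conditions unmet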; further: one replicate is shown; some compounds called inactive have numbers as strong as hits
# UCH37 DUB inh – inhibitors of human UCH37 deubiquitinase, primary screen, biochemical, Ub-AMC cleavage, fluorescence; Ubiquitin carboxyl-terminal hydrolase isozyme L5 (Homo sapiens), Q9Y5K5; purified proteasome/UCH37; inhibition, % (no concentration beside the values); hit rate 0.33% among 330,000; AID 588478, 2011;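 active means mean of two replicates above 20%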;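 further: 0% = compound-free wells with enzyme and 100% = wells lacking proteasome; stock transfer was 100 nL into about 20 µL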
# Target sequence (Q9Y5K5 whole entry, looked up): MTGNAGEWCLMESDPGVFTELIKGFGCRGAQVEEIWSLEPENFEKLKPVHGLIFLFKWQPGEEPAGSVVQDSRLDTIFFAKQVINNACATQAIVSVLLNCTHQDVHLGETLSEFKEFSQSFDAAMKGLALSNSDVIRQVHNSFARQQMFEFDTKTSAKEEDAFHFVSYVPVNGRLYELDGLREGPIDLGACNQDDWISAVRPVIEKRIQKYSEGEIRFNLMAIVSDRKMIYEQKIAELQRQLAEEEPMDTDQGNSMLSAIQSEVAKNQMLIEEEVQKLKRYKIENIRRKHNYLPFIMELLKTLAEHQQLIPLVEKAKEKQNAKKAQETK
#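 Test system – human UCH37 enzyme supplied as purified proteasome complex · Incubation – 30 min preincubation with enzyme, 25 min cleavage at room temperature · Detection – AMC fluorescence from Ub-AMC cleavage, excitation 355 nm, emission 460 nm · Benchmarks – no-proteasome wells (full inhibition) and compound-free wells (no inhibition)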
# rRNA inh HTS OD600 – further read-out of rRNA inh HTS, marked with its call; OD600 change, %; measured here: OD600 growth;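 optical density of the mix in the first replicate; 0 = DMSO median and -100 = no signal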
# rRNA inh HTS RFP – second read-out of rRNA inh HTS, no call of its own (marks repeat the call); RFP signal change, %; measured here: RFP humanized mutant strains;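 first replicate; 0 = DMSO median and -100 = no signal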
# Starred values were filed as active, the others as inactive; i = inactive; . = not tested or not shown. Not all compounds are listed, so the mix of outcomes need not match the whole.
smiles,FGF22 binding,Beta2AR agonist,ALR H2O2 inh,HNF4A DNA FP,Ecoli growth,rRNA inh HTS,rRNA inh HTS OD600,rRNA inh HTS RFP,UCH37 DUB inh
O=S(=O)(Oc1ccccc1N1CCCCC1)c1ccccc1,i,11.0,.,5.1,0.665,-15.9,-28.0,6.2,3.6
CC(C)CC(=O)C1CCCN(C(=O)c2ccc3oc(Cc4ccccc4)nc3c2)C1 (stereo unspecified),i,-2.6,0.9,-0.3,0.682,-13.6,-8.0,-1.5,0.3
COc1ccc(S(=O)(=O)NCC2CCCO2)cc1C(=O)O (stereo unspecified),i,-6.8,-3.8,6.9,0.636,11.8,20.1,-0.9,2.6
COc1cc(CNc2ccccc2Oc2cc(=O)n(C)c(=O)n2C)cc(OC)c1OC,.,5.2,-8.1,6.5,0.693,.,.,.,4.1
Cc1cc(NC(=O)CSc2nc3ccccc3n2CC(=O)N2CCC(C)CC2)no1,.,0.8,-2.4,-5.8,0.709,.,.,.,5.6
CN1CC[C@@]2([C@@]34CCN(C)C3Nc3ccccc34)c3ccccc3NC12 (stereo partly specified),i,7.0,-28.6,0.6,0.726,1.8,5.0,-1.5,3.4
NS(=O)(=O)c1ccc(CNC(=O)Cc2ccsc2)cc1,i,-1.0,-11.5,-3.6,0.726,26.4,21.6,4.6,0.5
COc1ccc(CCC(=O)Nc2cc(S(C)(=O)=O)ccc2Cl)cc1,.,-2.1,1.9,0.1,0.684,.,.,.,1.4
Cc1nn(S(=O)(=O)c2ccc([N+](=O)[O-])cc2)c(C)c1Sc1ccccc1,.,-1.2,-4.7,2.6,0.696,.,.,.,1.1
CCOc1[nH]c(/N=C/c2ccco2)c(C#N)c1C#N,.,-8.9,31.4,-3.6,.,.,.,.,.
c1ccc(CC(Nc2ccccn2)c2ccccc2)cc1 (stereo unspecified),.,-0.2,1.1,-9.3,0.654,.,.,.,0.0
C/C(CC(=O)NCc1ccc(F)cc1)=N\NC(N)=S,i,1.4,7.3,-3.0,.,10.3,10.4,0.5,.
Cc1ccccc1N(CC(=O)N1CCN(c2ccccc2)CC1)S(C)(=O)=O,.,-0.6,.,1.4,0.692,.,.,.,1.5
CCOc1cccc(CN2CCCC(C(=O)c3cc(Cl)ccc3OC)C2)c1O (stereo unspecified),i,2.8,.,-0.7,0.663,-24.8,-21.8,-1.4,2.3
COc1ccccc1C(=O)Nc1cc(Cl)ccc1-n1cncn1,i,9.4,-4.2,-1.8,0.759,-22.3,-23.0,-6.2,-2.3
COc1cc(C(C)n2nnc3ccccc32)ccc1O (stereo unspecified),i,.,.,-4.5,.,-2.6,-5.5,-3.8,.
Cc1ccc(S(=O)(=O)N2CCC(C(=O)NNC(=O)c3ccc(F)cc3)CC2)cc1,.,3.7,-2.1,-1.3,0.691,2.2,6.2,-4.6,3.1
COc1ccc(Cn2nnnc2CN2CCc3ccccc3C2)cc1,.,-4.5,0.4,0.6,0.651,.,.,.,0.2
Cc1ccc(NC(=O)c2sc(Cl)nc2-c2ccccc2)cc1,.,21.4,-3.0,-1.4,0.748,.,.,.,1.1
COc1ccc(CN(Cc2ccccn2)C(=O)CN2C(=O)COc3ccccc32)cc1,i,-3.6,-2.9,-5.1,0.653,9.7,16.0,-12.1,0.6

smiles,FGF22 binding,Beta2AR agonist,ALR H2O2 inh,HNF4A DNA FP,Ecoli growth,rRNA inh HTS,rRNA inh HTS OD600,rRNA inh HTS RFP,UCH37 DUB inh
CCOc1nc(C#N)nc(N2CCCCC2)n1,.,-0.7,.,-0.7,0.678,.,.,.,9.9
CCCOc1ccc(CNC(=O)C2CCN(c3nnc(N4CCCC4=O)s3)CC2)cc1,i,-0.2,-17.0,3.4,0.768,3.4,11.1,-2.4,-1.4
O=c1c(Cc2ccccc2)c(O)ccn1Cc1ccco1,i,7.2,-5.8,2.3,0.671,-15.8,10.4,23.4,3.9
CC(C)C/C(O)=C/c1nc2cc(Cl)ccc2oc1=O,.,4.0,-0.7,-0.1,0.692,.,.,.,-17.8
Cc1ccc(S(=O)(=O)N2CCc3ccccc3CC2)cc1,i,2.2,.,3.1,0.668,-11.6,-31.8,-6.5,-1.3
Cc1ccc(NC(=O)COc2cccc(C)c2C)cc1S(=O)(=O)N1CCCCCC1,i,15.1,5.7,-0.3,0.702,-3.5,-4.8,4.5,1.0
O=C(OCC(=O)N1CCN(c2ccccc2)CC1)c1ccc[n+]([O-])c1,i,4.0,21.0,-0.4,.,6.5,12.3,1.5,.
CN(C)CC1(c2ccccc2)CCCC1,.,-1.1,-5.8,0.1,0.694,.,.,.,2.1
COc1ccc(CCNC(=O)c2ccccc2NC(=O)C2=C(C)OCCS2)cc1OC,i,7.3,2.4,1.3,0.72,-4.8,-5.1,-0.8,3.2
COc1ccc(C(CC(=O)O)NC(=O)c2cc3cc(Br)ccc3oc2=O)cc1OC (stereo unspecified),i,-0.3,2.6,3.9,0.674,-2.7,0.0,1.2,3.6
Cc1ncoc1C(=O)Nc1nccs1,.,7.2,-7.2,-1.4,0.716,.,.,.,3.0
CCOC(=O)c1cnc(SCC(=O)N2CCOCC2)nc1N,i,-10.0,-4.3,-3.4,0.708,5.9,15.0,0.0,-0.7
CN(c1ccccc1)S(=O)(=O)c1ccc(C(=O)Nc2nnc(C3=COCCO3)o2)cc1,i,5.9,97.8*,2.8,0.651,-39.8,-62.5,-3.7,4.9
O=C(Cn1cc(C(F)(F)F)ccc1=O)N1CCN(S(=O)(=O)c2ccccc2)CC1,.,-8.5,0.1,2.4,0.681,.,.,.,-0.5
CC1(C)CC(NC(=O)COc2ccc(Br)cc2Cl)CC(C)(C)N1,i,0.9,5.1,-1.5,0.721,11.3,2.5,1.5,4.8
CN1CCN(C(=O)CCC(=O)c2ccc(F)cc2)CC1,.,4.4,.,-0.3,0.737,.,.,.,1.0
COc1ccc(S(=O)(=O)N2CCCC(C(=O)Nc3ccc4c(c3)OCCO4)C2)cc1 (stereo unspecified),i,-3.5,-12.6,1.5,0.644,-27.8,-28.3,17.5,0.4
O=C(CN1CCOCC1)Nc1ccc(Cl)cn1,i,1.0,-7.3,0.1,0.654,24.9,19.8,1.1,0.7
Cc1nnc(SCc2nc3ccccc3s2)n1N,i,-5.5,-5.0,1.1,0.647,21.0,14.6,2.9,2.4
CC1=CCC2C(=O)N(c3ccc(N4CCOCC4)cc3)C(=O)C2C1 (stereo unspecified),i,2.6,5.4,4.2,0.7,8.4,0.7,5.0,5.0

smiles,FGF22 binding,Beta2AR agonist,ALR H2O2 inh,HNF4A DNA FP,Ecoli growth,rRNA inh HTS,rRNA inh HTS OD600,rRNA inh HTS RFP,UCH37 DUB inh
O=C(COC(=O)COc1ccc(Cl)cc1Cl)NC1CCS(=O)(=O)C1 (stereo unspecified),i,4.2,-6.1,5.4,0.669,-5.0,-1.9,0.3,0.7
CS(=O)(=O)c1ccc(C(=O)N2CCN(S(=O)(=O)c3ccc(C4CCCCC4)cc3)CC2)cc1,i,-5.5,.,-1.0,0.718,8.6,5.0,-2.6,2.8
COc1cc(OC)cc(C(=O)Nc2ccc3c(c2)CCCN3C(=O)c2cccs2)c1,i,13.6,-1.1,-4.7,0.69,-1.5,-21.8,-1.7,1.4
Cc1cc(C)c(C#N)c(SCC(=O)Nc2nonc2N)n1,i,-13.3,2.6,0.5,0.681,3.3,3.7,-2.0,-4.2
Cc1ccc(-c2nn(-c3ccc(F)cc3)cc2C(=O)NCCCN2CCCC2=O)cc1,i,-8.0,.,0.7,0.671,-6.3,-4.6,0.3,0.1
Cc1ccc(S(=O)(=O)N2CCOCC2)cc1NC(=O)CSc1nc(N)cc(N)n1,i,-2.1,.,1.4,0.719,-1.6,5.7,3.3,3.6
O=C(CNC(=O)c1ccc(Br)cc1)c1ccccc1,i,1.8,-5.2,0.8,0.654,18.5,13.8,3.0,0.9
Cc1ccccc1Oc1ccc2c(c1)[C@@H]1C[C@H](N(C)C(=O)NC3CCCCC3)[C@H]([C@H](C)O)C(=O)N1CC2,i,-9.8,.,-3.0,.,3.7,2.0,6.7,.
CC(C)C(=O)Nc1ccc(C(=O)Nc2ccc(Br)cc2F)cc1,i,-6.7,-1.1,-4.6,0.718,12.9,5.3,-10.6,-1.2
CC(=O)Nc1ccc(Oc2cc(C#N)c(C#N)cc2N2CCCCCC2)cc1,.,9.3,-3.5,0.4,0.761,.,.,.,-11.0
CC1=CC(C)(C)N(C(=O)CSc2nnc(N)s2)c2ccccc21,.,-1.8,1.4,1.4,0.727,.,.,.,4.9
O=c1c2ccccc2[nH]c(=S)n1CCN1CCc2ccccc2C1,i,-5.7,1.4,1.9,0.686,1.0,2.7,4.3,2.7
COc1cccc2c1Oc1ncccc1N(C(=O)CCC(=O)NCc1ccccc1Cl)C2,i,5.0,-0.5,0.2,0.686,-4.0,-14.4,-2.3,2.1
COc1ccc(CN(C)C(=O)CNC(=O)CNC(=O)c2ccc(Cl)cc2Cl)cc1F,i,-1.3,11.0,2.7,0.652,3.5,-1.8,-0.8,1.9
CCN(CC)c1ccc(C(=O)NNC(=O)CCc2nc3ccccc3c(=O)[nH]2)cc1,i,3.1,27.9,5.5,0.686,0.6,-6.2,1.1,3.5
C=CCn1c(-c2sccc2C)n[nH]c1=S,i,1.3,94.8*,-2.1,0.661,.,.,.,2.4
COC(=O)C=C1CCC2C3CC(F)C4(O)CC(=O)CCC4(C)C3C(=O)CC12C (stereo unspecified),i,-0.2,.,-3.0,0.671,0.9,-4.2,9.3,5.1
O=C(Cn1cnc([N+](=O)[O-])c1)NC1CCCC1,i,3.6,-1.0,2.7,0.735,14.5,4.4,3.7,2.8
COc1ccccc1C1=Nn2c(nnc2C2CCCCC2)SC1,.,-6.6,-5.7,4.2,0.739,.,.,.,1.7
O=C(Nc1ccc(C(=O)Oc2ccccc2)c(O)c1)c1ccccc1,i,12.0,-2.8,4.9,0.693,-15.7,-12.4,-0.8,-1.6

smiles,FGF22 binding,Beta2AR agonist,ALR H2O2 inh,HNF4A DNA FP,Ecoli growth,rRNA inh HTS,rRNA inh HTS OD600,rRNA inh HTS RFP,UCH37 DUB inh
Cc1ccc(NC(=O)CN(C)C(=O)C(Sc2ccccc2)c2ccccc2)cc1 (stereo unspecified),i,6.6,-1.5,-1.0,0.68,-9.0,-44.8,-7.4,2.3
CC1CN(C(=O)c2cccs2)CC(C)O1 (stereo unspecified),i,3.9,-18.6,3.3,0.664,-6.5,2.2,0.5,-2.7
Nc1c(C(=O)N2CCCCCC2)oc2ccccc12,i,-3.9,9.9,1.8,0.659,7.2,-17.3,1.0,-22.6
CCOC(=O)C1(Cc2ccc(OC)cc2)CCN(C(=O)c2cc(C)on2)CC1,i,-4.4,.,12.0,0.714,-1.0,-1.3,-1.8,1.7
COc1ccc(S(=O)(=O)Nc2ccc3oc(C)c(C(=O)O)c3c2)cc1,i,7.2,1.6,-3.7,0.724,0.5,-2.6,-1.4,-5.8
COc1cccc(C(=O)c2c(C)c(CCC#N)n3ccccc23)c1OC,i,-4.8,-1.9,-0.4,0.678,-9.4,-7.1,-4.3,11.3
Cc1ccc(NS(=O)(=O)c2cccc(C(=O)Nc3cc(C)on3)c2)cc1,.,-9.8,-0.1,0.7,0.671,.,.,.,0.3

# Screens: PubChem BioAssay, several laboratories
